High-throughput results: PubChem BioAssay, National Center for Advancing Translational Sciences (NCATS)
gsp ag: qHTS for Agonist of gsp, the Etiologic Mutation Responsible for Fibrous Dysplasia/McCune-Albright Syndrome: qHTS; gsp mutant cells, cAMP HTRF, 30 min; control for the full effect not named in the record; Potency, µM (series often up to 76.9 µM), for the others: at the top dose activation (cAMP increase), hits mostly activators; 340,000 tested, 0.13% active; active = well fitted activation curve with a large enough effect; inconclusive = small, poorly fitted or top-dose-only effect, or another doubt; inactive = no such curve, though single readings can be large or run the other way; cell line not stated here;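 note: phosphodiesterase inhibitor Ro 20-1724 added with compounds to block cAMP breakdown; potency is the fitted concentration of half-maximal effect; nearly all actives have a fitted effect of over 60% in size; about a fifth of the inactives were tested at one dose only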
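Cells stably selected in G418 were plated at 2000/well, grown 16-24 hr, then given compounds in DMSO with the PDE inhibitor […] (300 uM solution added) for 30 min at 37C; cAMP was read by HTRF.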
CtBP-E1A blk: qHTS Assay for Inhibitors of the CtBP/E1A Interaction. 340,000 tested, 0.49% active. activity change, % (concentration not given with the values). AID 651724, 2012. AlphaScreen GST-E1A/His-CtBP binding, 1536-well; stronger effect = lower value; control for the full effect not named in the record. CtBP / adenovirus E1A interaction (AlphaScreen); in the data active means activity change below about -65%; inconclusive means about -30% to -65%; inactive means above about -30%; note: % is set by controls: 0 for no effect and ±100 for the full control effect
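GST-E1A and His-tagged CtBP (125 nM each as 5X stock) were preincubated with pin-transferred compound for 2 h at 37 °C in the dark, then glutathione donor and nickel acceptor beads were added for 1 h before AlphaScreen reading.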
D2 PAM: Beta-Arrestin HTS for Positive Allosteric Modulators of the Human D2 Dopamine Receptor: Potentiators; potentiation, % (no concentration beside the values); D(2) dopamine receptor (Homo sapiens), P14416; DiscoveRx D2 beta-arrestin cells, luminescence, 90 min; 100% = 57 uM dopamine signal; 360,000 tested, 0.23% active; active = potentiation of 50% or more; inconclusive = 30% to 50%; inactive = 30% or less;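 note: compound concentration not given in the record; tested on top of an EC20 dose of dopamine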
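PathHunter D2 cells, attached overnight at 37 deg C, received compound in DMSO plus dopamine at EC20 (50 nM final) for 90 min at 37 deg C. Beta-arrestin recruitment was read as luminescence after 1 h with detection reagent at ambient temperature.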
Six1-Eya2 inh: qHTS Assay for Inhibitors of the Six1/Eya2 Interaction. activity change, % (concentration not given with the values). 360,000 tested, 0.56% active. AlphaScreen GST-Six1/His-Eya2 binding, biochemical; stronger effect = lower value; control for the full effect not named in the record. Homeobox protein SIX1 (Homo sapiens) + Protein phosphatase EYA2 (Homo sapiens), …. AID 651725, 2012; in the data active = activity change below about -65%; inconclusive = about -30% to -65%; inactive = above about -30%; note: % is set by controls: 0 for no effect and ±100 for the full control effect
Target sequence (O00167 whole entry, looked up): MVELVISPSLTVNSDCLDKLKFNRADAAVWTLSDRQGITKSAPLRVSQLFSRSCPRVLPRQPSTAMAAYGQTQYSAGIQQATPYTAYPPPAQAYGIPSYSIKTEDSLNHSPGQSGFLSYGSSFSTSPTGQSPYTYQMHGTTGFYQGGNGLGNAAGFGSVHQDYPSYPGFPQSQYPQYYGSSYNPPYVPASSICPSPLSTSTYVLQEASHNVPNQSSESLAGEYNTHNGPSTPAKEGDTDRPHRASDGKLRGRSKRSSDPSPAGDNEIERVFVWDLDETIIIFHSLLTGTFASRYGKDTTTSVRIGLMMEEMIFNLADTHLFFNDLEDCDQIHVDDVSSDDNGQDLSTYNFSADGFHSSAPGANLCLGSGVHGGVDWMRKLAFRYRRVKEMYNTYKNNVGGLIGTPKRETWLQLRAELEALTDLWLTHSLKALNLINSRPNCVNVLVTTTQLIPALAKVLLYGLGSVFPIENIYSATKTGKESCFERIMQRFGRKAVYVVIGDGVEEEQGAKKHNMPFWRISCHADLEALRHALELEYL
Target sequence (Q15475 whole entry, looked up): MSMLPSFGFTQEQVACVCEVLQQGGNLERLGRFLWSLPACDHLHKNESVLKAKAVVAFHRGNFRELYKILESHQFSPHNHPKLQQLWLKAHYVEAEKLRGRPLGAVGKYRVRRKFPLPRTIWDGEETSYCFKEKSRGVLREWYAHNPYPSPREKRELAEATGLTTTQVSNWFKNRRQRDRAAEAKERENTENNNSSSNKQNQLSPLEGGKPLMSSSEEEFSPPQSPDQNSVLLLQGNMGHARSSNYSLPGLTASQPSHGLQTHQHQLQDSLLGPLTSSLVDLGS
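AlphaScreen luminescence read after one hour at 37 °C in darkness. Pin-transferred compounds met GST-Six1 and His-Eya2 protein (5X stock 250 nM/500 nM) plus glutathione donor and Ni-chelate acceptor beads (5X, 50 ug/mL).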
D2 agonist: Beta-Arrestin HTS for Positive Allosteric Modulators of the Human D2 Dopamine Receptor: Agonists; activation, % (test concentration not listed); AID 624465, 2012; D(2) dopamine receptor (Homo sapiens), P14416; 360,000 tested, 0.084% active; DiscoveRx PathHunter D2 beta-arrestin, luminescence, 90 min; 100% = 57 uM dopamine signal; in the data active = activation above about 40%; inconclusive = about 15% to 40%; inactive = below about 15%; note: compound concentration not given in the record; the text of the record calls up to 30% inactive
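Agonist mode: compounds alone added to overnight-plated D2 PathHunter cells for 90 min at 37 C, with 57 uM final dopamine (EC100) defining full response. Beta-arrestin recruitment detected by chemiluminescent reagent, read after 1 h at ambient temperature.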
gsp antag: qHTS for Antagonists of gsp, the Etiologic Mutation Responsible for Fibrous Dysplasia/McCune-Albright Syndrome: qHTS; gsp-mutant cells, cAMP HTRF, 30 min; control for the full effect not named in the record; Potency, µM (series often up to 76.9 µM), for inactives: at the highest dose activity change, negative = inhibition, usual class: inhibitors; 340,000 tested, 0.4% active; AID 624288, 2012; active = falling curve of any shape with a large fitted effect; inconclusive = falling curve, mostly with a smaller effect; inactive = flat or rising curve; cell line not stated here;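 note: intracellular cAMP measured with PDE inhibitor Ro 20-1724 present during compound exposure; potency is the fitted concentration of half-maximal effect; % is set by controls: 0 for no effect and ±100 for the full control effect; nearly all actives have a fitted effect of over 65% in size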
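G418-selected cells were plated in DMEM/10% FBS for 16-24 h at 37C, then treated with compounds plus the PDE inhibitor […] (300 uM solution added) for 30 min at 37C. Intracellular cAMP was measured by HTRF after 30 min lysis at room temperature.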
An asterisk follows results filed as active; ? = inconclusive; nt = not tested or not shown; [ ] = dose if it differs, or a comment.

SMILES | gsp ag | CtBP-E1A blk | D2 PAM | Six1-Eya2 inh | D2 agonist | gsp antag
CCOc1ccc(N2C(=O)CC(Cc3ccccc3OC)C2=O)cc1 (stereo not drawn) | 12%[15.4 µM] | 4 | -5 | -8 | -0.5 | -2%
CC1Cc2ccccc2N1C(=O)COC(=O)c1ccco1 (stereo not drawn) | 25% | 0 | -10 | 41 | 0.8 | nt
COc1ccc(-c2c(C)nn(-c3ccccc3)c2N)cc1 | -5% | -4 | -18 | -4 | -1.1 | 1%
CCOc1ccc2nc(-c3ccccc3)nc(SCC(=O)OC)c2c1 | -2%[15.4 µM] | 6 | 1 | 6 | 3.6 | -13%
COCn1c(-c2ccc(OC)c(OC)c2)nc2ccccc21 | -30%[inhibitor] | 0 | -27 | -1 | 6.8 | 0%
CCOc1ncccc1C(=O)OCC(=O)NCc1ccc(C(=O)OC)cc1 | 11% | -2 | -4 | 1 | 3.0 | 1%
O=C(O)CN(CCc1ccccc1)S(=O)(=O)c1ccccc1 | 14% | 1 | -3 | 5 | -5.1 | 4%
N#CC1=C(N)S[C@@H](C(=O)c2ccc(F)cc2)[C@@H]1c1cccs1 | ? | -1 | -15 | -4 | -1.3 | 15%
Fc1ccccc1OCC1CCCN(Cc2nc(CC3CC3)no2)C1 (stereo not drawn) | -6%[15.4 µM] | 15 | -17 | -1 | -3.0 | -1%
O=C1N/C(=C/c2cccs2)C(=O)N1Cc1ccccc1F | -17%[15.4 µM] | 6 | -1 | -7 | -4.9 | 14%
Nc1ccc(Br)c2c1C(=O)c1ccccc1C2=O | -53%[inhibitor] | -75* | -2 | ? | -3.5 | -14%
Cc1c(C(=O)OCC(=O)N2C(C)CCCC2C)oc2ccccc12 (stereo not drawn) | 7% | -2 | -9 | -1 | -1.1 | -15%
CCOC(=O)CCNC(=O)N1CCC(CCOc2ccccc2)(C(=O)OCC)CC1 | -21% | 5 | -1 | 7 | 0.8 | 4%
CN(C)CCCN(C(=O)COc1ccc(Cl)cc1)c1nc2cc3c(cc2s1)OCO3 | 4% | -23 | -24 | -17 | -5.5 | 0%
COc1ccccc1NC(=O)CSc1nc2ccccc2c(=O)n1CCNC(C)=O | 2% | 0 | -4 | -2 | -0.6 | 1%
COCCNC(=O)CSc1ccc(C)cc1 | -15% | 6 | 0 | 4 | -0.5 | -2%
COc1ccccc1Nc1nc(N)nc(CN2CCN(c3ccccc3F)CC2)n1 | -36%[inhibitor] | -7 | -29 | -11 | 1.4 | -8%
C[C@@H]1CN([C@@H](C)CO)C(=O)c2cc(C#CC(C)(C)O)cnc2O[C@@H]1CN(C)C(=O)c1ccccc1F | ? | 7 | 0 | 5 | -2.8 | nt
O=S(=O)(Nc1ncccn1)c1cc(Cl)ccc1Cl | -3%[15.4 µM] | 1 | 2 | 7 | 5.9 | 1%
O=C(NNC(=O)c1cc(S(=O)(=O)N2CCCCC2)ccc1Cl)c1ccccc1O | -31%[inhibitor] | nt | -4 | -5 | -3.0 | -13%
COCCCn1c(SCC(=O)Nc2ccc(C)cc2)nc2ccccc2c1=O | -1%[15.4 µM] | 7 | -3 | -1 | -1.5 | 0%
COc1ccccc1OCC(=O)Nc1ccc(NC(=O)COc2ccccc2OC)cc1 | 6% | -15 | -12 | -8 | -1.4 | 0%
CCn1c(C2CCN(S(=O)(=O)c3ccc(OC)cc3)CC2)n[nH]c1=S | -16%[15.4 µM] | 10 | -8 | 6 | -15 | -18%
CC(C)Oc1ccc(CNC(=S)Nc2ccccc2)cc1Cl | 3% | nt | 1 | -4 | 4.4 | -2%
Cc1ccccc1N1CCN(C(=S)c2ccc(-c3cccc([N+](=O)[O-])c3)o2)CC1 | 16% | nt | -2 | -17 | 0.7 | 6%
CCOC(=O)N1CCN(C(=O)c2ccc(NC(=O)CC)cc2)CC1 | -2% | 0 | -6 | 7 | 1.3 | -9%
Cc1nc2ccccc2cc1C(=O)N/N=C/c1cccc([N+](=O)[O-])c1 | -6%[15.4 µM] | -2 | -3 | -15 | -1.4 | 2%
CCN(CC)S(=O)(=O)c1cccc(C(=O)N/N=C/c2ccc([N+](=O)[O-])o2)c1 | 19%[15.4 µM] | -2 | 14 | -7 | 1.6 | 2%
COc1cc(N/N=C(\C)c2ccc(N)cc2)nc(-c2ccccc2)n1 | -1% | -10 | -17 | -21 | -4.7 | ?
NS(=O)(=O)c1cccc(NC(=O)COC(=O)CCCc2c[nH]c3ccccc23)c1 | -36%[inhibitor] | -12 | -5 | -8 | 9.3 | -9%

Random excerpt: three records from the list
SMILES | gsp ag | CtBP-E1A blk | D2 PAM | Six1-Eya2 inh | D2 agonist | gsp antag
Cc1ccccc1N1CCN(C(=S)c2ccc(-c3cccc([N+](=O)[O-])c3)o2)CC1 | 16% | nt | -2 | -17 | 0.7 | 6%
COc1ccccc1OCC(=O)Nc1ccc(NC(=O)COc2ccccc2OC)cc1 | 6% | -15 | -12 | -8 | -1.4 | 0%
Cc1nc2ccccc2cc1C(=O)N/N=C/c1cccc([N+](=O)[O-])c1 | -6%[15.4 µM] | -2 | -3 | -15 | -1.4 | 2%

Additional structures.
SMILES | gsp ag | CtBP-E1A blk | D2 PAM | Six1-Eya2 inh | D2 agonist | gsp antag
Cc1cc(C)cc(NC(=O)CCn2ccnc2)c1 | 12%[15.4 µM] | -1 | -1 | 1 | -2.1 | 12%
O=C(Nc1cc(F)ccc1F)C1CCN(S(=O)(=O)c2cccc3nonc23)CC1 | -55%[inhibitor] | -1 | -3 | -4 | 8.5 | -15%
COC(=O)C1NN=C(C(=O)c2ccc(Cl)cc2)C1c1ccc(OC)cc1 (stereo not drawn) | -3%[15.4 µM] | 8 | -52 | -4 | -12 | 6%
O=C(NC1CC1)C1CCCN(C(=O)NC2CCCCC2)C1 (stereo not drawn) | -5% | 12 | -3 | 16 | -5.3 | 11%
CCS(=O)(=O)N1Cc2ccccc2CC1C(=O)Nc1nnc(C2CC2)s1 (stereo not drawn) | 7%[15.4 µM] | -14 | -5 | ? | 1.7 | -2%
COc1ccc2nc3ccccc3nc2c1NC(=O)c1ccc(Cl)cc1 | -9%[15.4 µM] | -1 | -2 | -3 | -5.8 | -11%
O=S(=O)(CCSc1ccc(C(F)(F)F)cn1)c1ccc(Cl)cc1 | -10%[15.4 µM] | 15 | -2 | 22 | 0.2 | 2%
O=C(O)CC(O)(CC(=O)O)C(=O)O | nt | 3 | -5 | 0 | -4.3 | -8%
Cc1cc(=O)n2nc(N3CCCC(C(=O)NCc4ccc(Cl)cc4)C3)sc2n1 (stereo not drawn) | ? | nt | -6 | -5 | -27 | -8%
O=C(NCc1cccnc1)c1nc(-c2cccs2)no1 | 3%[15.4 µM] | 18 | -6 | 8 | -0.4 | 1%
CCOC(=O)N1CCN(C(=O)c2ccccc2N(C)S(C)(=O)=O)CC1 | -8% | -3 | -18 | 2 | -1.7 | 6%
CC(C)NC(=O)c1onc(CSc2ccncc2)c1C(=O)NC(C)C | -51%[inhibitor] | 4 | -6 | 4 | 0.8 | 8%
COc1ccc2c(C)cc(SCC(=O)N(C)C3CCS(=O)(=O)C3)nc2c1 (stereo not drawn) | 13%[15.4 µM] | 10 | 7 | 2 | -1.7 | -3%
COc1ccc(OCCn2c(=O)sc3ccccc32)cc1 | -5%[15.4 µM] | 12 | -7 | 6 | -3.9 | 4%
Cc1cc(NC(=O)CN2C(=O)NC(CC(C)C)C2=O)no1 (stereo not drawn) | -13% | 0 | -5 | 5 | -3.9 | 12%
COc1ccccc1/C=C(/C(=O)OCC(N)=O)c1ccccc1 | -23% | nt | -5 | 7 | -6.3 | 8%
O=C(Cn1cc(C(F)(F)F)ccc1=O)N/N=C/c1cccc(Cl)c1 | -1%[15.4 µM] | 2 | -8 | -5 | -4.6 | -11%
COc1ccc(S(=O)(=O)Nc2ccccc2)cc1OC | 20% | 5 | 5 | -1 | -1.2 | -1%
CC[C@@]1(C(=O)OC)N[C@H](CN(C)C(=O)Nc2ccc(Cl)cc2)[C@@H]2C(=O)N(Cc3ccccc3)C(=O)[C@@H]21 | nt | -11 | nt | 2 | -0.9 | -1%
Cc1cccc(NC(=O)COC(=O)CCCC2=NS(=O)(=O)c3ccccc3N2)c1 | -70%[inhibitor] | 4 | -11 | 6 | -5.3 | 7%

Structural class, the entries above with a furan ring, fused or not.
SMILES | gsp ag | CtBP-E1A blk | D2 PAM | Six1-Eya2 inh | D2 agonist | gsp antag
CC1Cc2ccccc2N1C(=O)COC(=O)c1ccco1 (stereo not drawn) | 25% | 0 | -10 | 41 | 0.8 | nt
Cc1c(C(=O)OCC(=O)N2C(C)CCCC2C)oc2ccccc12 (stereo not drawn) | 7% | -2 | -9 | -1 | -1.1 | -15%
Cc1ccccc1N1CCN(C(=S)c2ccc(-c3cccc([N+](=O)[O-])c3)o2)CC1 | 16% | nt | -2 | -17 | 0.7 | 6%
CCN(CC)S(=O)(=O)c1cccc(C(=O)N/N=C/c2ccc([N+](=O)[O-])o2)c1 | 19%[15.4 µM] | -2 | 14 | -7 | 1.6 | 2%

(continued)
SMILES | gsp ag | CtBP-E1A blk | D2 PAM | Six1-Eya2 inh | D2 agonist | gsp antag
Cc1ccc(C(=O)C2CCN(CC(=O)Nc3ccccc3C)CC2)cc1 | -3%[15.4 µM] | -4 | -15 | -10 | 0.9 | -4%
CSc1nn2c(C(F)(F)F)cc(C(F)(F)F)nc2c1C(N)=O | -60%[inhibitor] | 10 | 0 | 7 | -3.1 | -19%
CCCc1[nH]nc2c1C(c1ccccc1OCC)C(C#N)=C(N)O2 (stereo not drawn) | -26% | 36 | -6 | 18 | -4.7 | 0%
CCC(NC(=O)c1cccc(Cn2nc(C)c([N+](=O)[O-])c2C)c1)c1ccc(C(C)C)cc1 (stereo not drawn) | ? | 11 | 0 | 6 | 2.5 | 15%
O=C(NCC(=O)N1CCCCCCC1)c1cccc([N+](=O)[O-])c1 | -8% | -10 | -11 | 5 | -1.0 | 7%
CCCCCn1c(C(Cc2ccccc2)NC(=O)COC)nc2ccccc21 (stereo not drawn) | -70%[inhibitor] | -15 | -5 | 0 | -6.4 | -12%
CCn1nnnc1NC(=O)c1cc(Cl)c(OC)c(Cl)c1 | -4% | 0 | -15 | -3 | -3.9 | -4%
O=C(COc1ccc(Cl)cc1Br)NNC(=O)C(=O)N1CCCCC1 | -8% | 1 | -6 | -2 | -3.4 | 0%
CC(=O)Nc1c(NCC(C)C)c2ccccc2oc1=O | 3% | 3 | -5 | 3 | -0.6 | 5%
